Screening data as filed in PubChem BioAssay.
NPYLR7 agonist = activates Aedes aegypti NPYLR7 receptor | activation, % at 10 µM | 270,000 compounds, 0.15% hits | HEK293T NPYLR7/Galpha15, GCaMP6s calcium fluorescence; in the data active = activation above about 40%;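 note: 0% = vehicle and 100% = reference agonist at the receptor; some compounds past the cut are filed as inactive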
NPYLR7 agonist max-min = further read-out of NPYLR7 agonist, marked with its call; activation, %; measured here: Max-Min RFU normalised activation; some inactives read as strong as hits;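 span of the calcium signal over five minutes; 0% = vehicle and 100% = native peptide agonist; compound fluorescence can raise it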
Starred values were filed as active, the others as inactive; & = joins results of further samples. This is a subset; rates above refer to the full screens.

SMILES | NPYLR7 agonist | NPYLR7 agonist max-min
Cc1cc(C)nc(NN=Cc2cc(C)n(-c3ccc(C)c(C)c3)c2C)n1 | -3 | -5
CC(C)(C)NS(=O)(=O)c1cc(N)ccc1F | 10 | 5
CC1(C(=O)Nc2ccccc2N2CCCC2)Cc2ccccc2C(=O)O1 (centres undefined) | 2 | 1
CN(CC(=O)Nc1ccc(Cl)cc1Cl)Cc1nc2ccccc2s1 | 7 | 6
CCN(CC)C(=O)C(NC(=O)c1cccc(C)c1)C1CCN(C(=O)c2ccc(Cl)cc2)CC1 (centres undefined) | -9 | 0
O=C1NC2(CCOc3ccccc32)C(=O)N1Cc1cc(=O)n2ccsc2n1 (centres undefined) | 3 | 9
CCN(CC)C(S)Sc1c(O)cc(-c2ccccc2)n(-c2ccccc2)c1=O (centres undefined) | 4 | 7
N#Cc1nc(-c2ccc(COc3ccccc3)o2)oc1N1CCOCC1 | 0 | 21
O=c1c2nnn(Cc3ccc(Cl)cc3)c2ncn1C/C=C/c1ccccc1 | 9 | 11
COc1cc(C(=O)Nc2ccc(C)cc2O)cc(OC)c1Br | 10 | 4
CC1=CC(C)(C)SC(N)=N1 | -5 | -12
Cc1[nH]n(-c2nc(-c3ccc(Cl)cc3)cs2)c(=O)c1N=Nc1ccccc1[N+](=O)[O-] | -4 | -7
CCCN(CC(=O)NCC(=O)Nc1ccc(C)cc1)C(=O)c1ccc(OC)cc1OC | 8 | 14
COc1ccc(NC(=O)CNc2ccccc2-c2ccccc2)cc1 | 3 | 1
Cc1nn(CC(=O)NN2C(=O)c3ccccc3C2=O)c(C)c1[N+](=O)[O-] | -2 | -5
CCN1CCCC1CNC(=O)c1cc(S(=O)(=O)CC)c(N)cc1OC (centres undefined) | 4&-8 | 7&-13
c1ccc(CN2CCC(Cn3cnnc3)C2)cc1 (centres undefined) | 2 | 2
CCS(=O)(=O)c1ccc(O)c(NS(=O)(=O)c2cc(Br)ccc2Br)c1 | 2 | 1
O=C(NC1CCCCNC1=O)c1cc2n(n1)CCN(Cc1cccc(C(F)(F)F)c1)C2=O (centres undefined) | 7 | 31
CC(C)(CCl)C(=O)NCC1CCN(c2nc(Cc3ccc(Cl)cc3)ns2)CC1 | 9 | 12
CCC(C(=O)NCCN1C(=O)SC(=Cc2ccccc2)C1=O)c1ccccc1 (centres undefined) | 4 | 4
O=c1c2cc(Cl)ccc2nc(-c2cccc(OCc3ccccc3)c2)n1Cc1ccccc1 | -1 | -3
CCn1cc(C(CC(=O)N2CCc3ccccc3C2)c2cccc(F)c2)c2ccccc21 (centres undefined) | -1 | 1
COc1ccc(S(=O)(=O)N2CCOCC2)cc1N1CCN(S(=O)(=O)c2ccc(Cl)c([N+](=O)[O-])c2)CC1 | 24 | 17
O=C(CCc1cccnc1)N1CC[C@H](CO)[C@H](O)C1 | -1 | -5
COc1ccc(S(=O)(=O)Oc2cccc(CN(CCN(C)C)C(=O)c3ccccc3Cl)c2)cc1 | 6 | 18
COc1ccc(-c2nc(C(=O)N3CCN(c4ccc([N+](=O)[O-])cc4)CC3)cs2)cc1OC | 5 | 1
CCCn1c(SCC(=O)NC(=O)NCCC(C)C)n[nH]c1=O | -1 | -3
CCc1ccc(CN(C)C(=O)c2nc3c(C)cccn3c2F)nc1 | 0 | -1
CCN(CC)c1nc(C#N)nc(N2CCOCC2)n1 | 2 | 2
COc1c[nH]c(CN2CCOC(C(F)(F)F)C2)cc1=O (centres undefined) | 4 | -8
Cc1cc(C)cc(C(=O)Nc2c3c(nn2-c2ccccc2C)CSC3)c1 | -1 | -4
Cc1ccc(NC(=O)c2ccc(Br)s2)c(F)c1 | -1 | -6
CCn1nnnc1-c1cccc(NC(=O)N(C)Cc2ccncc2)c1 | -1 | 1
CCOC(=O)C1(Cc2ccc(Cl)cc2)CCN(C(=O)c2ccc3nccnc3c2)CC1 | -5&9 | -6&8
COc1ccc(C2=NN(C(=O)CN3CCC4(CC3)OCCO4)C(c3ccccc3OC)C2)cc1 (centres undefined) | 14 | 15
CC(C(=O)NCc1ccc(Cl)s1)n1cncn1 (centres undefined) | 8 | -5
Cc1ccc(S(=O)(=O)Nc2nc3ccccc3nc2-[n+]2ccc(-c3ccncc3)cc2)cc1 | 21 | 28
O=C(NC(C(=O)N1CCCCC1)C1CCN(C(=O)c2ccco2)CC1)c1ccccc1F (centres undefined) | 15 | 20
CCC(CC)C(=O)N(CC(=O)NCC(=O)Nc1ccc(OC)cc1)Cc1ccco1 | 6 | 5
Oc1[nH]c(=S)sc1C=Nc1ccccc1 | -1 | -4
CC(C)CNC(=O)c1cc(NC(=O)c2ccc(-c3ccccc3)cc2)ccc1N1CCCC1 | -7 | 1
O=C1C[C@H]2CC[C@@H](CN1)N2C(=O)CN1CCOC1=O | 2 | 2
CCN1CCN(c2nc3c(c(=O)n(C)c(=O)n3C)n2C(C)C)CC1 | 6 | 0
CCOC(=O)N1CCN(C(=O)CSc2nnc3[nH]c(=O)cc(-c4ccccc4)n23)CC1 | -12 | -6
Cc1[nH]n2c(=O)cc(C(C)(C)C)nc2c1-c1ccccc1 | -4 | -7
O=C(CCN(Cc1ccco1)c1nc(-c2ccco2)nc2ccccc12)NCc1cccc(C(F)(F)F)c1 | 11 | 23
Cc1c(C(=O)OCC(=O)N(C)C)nnn1-c1ccc(F)c(Cl)c1 | 11 | 9
CCN(Cc1noc(C2CC2)n1)C(=O)c1ncoc1C1CC1 | 9 | -1
COc1ccccc1OC(C)(C)C(=O)N1CCOC2(CNCCOC2)C1 (centres undefined) | 11 | 9
COCCNCc1ccccc1OS(=O)(=O)c1ccc(F)cc1 | -1 | 1
CN(CCCc1cnn(C)c1)C(=O)c1scc2c1CCCC2 | 2 | -42
CCC(CO)NC(=O)C(=O)N1CCSc2ccccc21 (centres undefined) | -2 | -5
COc1ccccc1N1CCN(Cc2nc3ccsc3c(=O)[nH]2)CC1 | 6 | 4
Cn1c(Nc2ccccc2)nc2cnc(Nc3ccncc3)cc21 | 9 | -4
CC(C)c1cc(C(=O)NCCN(C)S(C)(=O)=O)no1 | 0 | -1
N#Cc1ccc(-c2csc(NC(=O)Cc3c(F)cccc3Cl)n2)cc1 | 0 | -1
COc1cccc(CCNC(=O)c2ccc[nH]c2=O)c1OC | 5 | 7
O=C(CN1CCOCC1)N1CCN(Cn2nc(-c3ccco3)n(-c3ccccc3)c2=S)CC1 | 15 | 14
O=c1[nH]c2nc3ccccc3n2c2ncccc12 | 9 | 6

3 entries from above in another layout:
Second line of a record: NPYLR7 agonist	NPYLR7 agonist max-min
> COc1ccccc1N1CCN(Cc2nc3ccsc3c(=O)[nH]2)CC1
  6	4
> Cn1c(Nc2ccccc2)nc2cnc(Nc3ccncc3)cc21
  9	-4
> CC(C)c1cc(C(=O)NCCN(C)S(C)(=O)=O)no1
  0	-1

Next records follow.
SMILES | NPYLR7 agonist | NPYLR7 agonist max-min
C=CCN(Cc1ccccn1)C1CCN(C(C)=O)CC1 | -2 | -2
CSc1ccc(CC(=O)NCc2cccnc2N2CCN(C(C)=O)CC2)cc1 | 6 | 7
COc1ccc(C(=O)NNC(=O)CCOc2ccccc2F)cc1 | 3 | 1
O=C(NCCCn1ccnc1)c1cc(C2CC2)on1 | 4 | 5
CCCn1c(SCC(=O)C(C#N)=C(C)N)n[nH]c1=O | 6 | 11
C=CCn1cc(CN(C)C(C)CC(=O)NC)c(C)n1 (centres undefined) | 2 | 2
Cc1c(CCNC(=O)CC2COCCN2)c2cccc3c2n1CCC3 (centres undefined) | 3 | 5
COC(=O)c1ccc(COc2cccn3c(N(C)CC4CC4)c(C)nc23)cc1 | 1 | -2
O=C(CCn1cnc2ccccc2c1=O)NC1CCCc2c1cnn2-c1ccc(F)cc1F (centres undefined) | 14 | 1
CC1=C(Cc2cn(CCN3CCOC3=O)nn2)C(C)(C)CCC1 | 22 | 11
COC(C)(C)CC(C)NCc1noc(C2CCCC2)n1 (centres undefined) | 2 | -4
CCc1nc(CNc2cc(C(=O)N3CCOCC3)ccc2C)cs1 | -20 | -20
O=C(Nc1ccc(Oc2ccccc2F)cc1)C1CCN(Cc2nccs2)CC1 | 4&-3 | -1&-2
O=C(c1ccc2oc(Cc3ccccc3)nc2c1)N1CCN(c2ncccn2)CC1 | 2 | -1
CCOc1ccccc1NC(=O)NCCNc1cc(-n2cccn2)ncn1 | -6 | -11
COC(=O)c1cc(-c2ccc(F)cc2)nc2c1c(C)nn2C1CCS(=O)(=O)C1 (centres undefined) | 0 | 0
COC(=O)c1ccc2c(=O)n(Cc3ccc(C(=O)NCCCN4CCCCC4)cc3)c(=S)[nH]c2c1 | 0 | -7
CCCCS(=N)(=O)CC[C@H](N)C(=O)O (some centres undefined) | 4 | 2
CCCN(CC(=O)Nc1cc(C(C)(C)C)nn1-c1cccc(C)c1C)C(=O)c1ccc(Br)cc1 | 16 | 16
CCc1cn[nH]c1C1CCN(Cc2nccn2-c2ccc(OC)cc2)CC1 | 2 | 0
COc1cc(=O)n(-c2ccc(F)cc2)nc1C(=O)N1c2ccccc2CC1C (centres undefined) | 7 | 0
Cc1ccc(NC(=O)C(C)Nc2ccc3c(c2)CCC3)c(Br)c1 (centres undefined) | -1 | -1
CCCOC(=NCc1ccco1)NC(=O)c1cccc(OC)c1 | 3 | 10
C=CCN(CC(=O)N1CCCc2cc(OC)ccc21)C1CCCC1 | 8 | 4
COC(=O)c1c(Nc2nc3ccccc3nc2Cl)sc(C)c1C | 1 | 2
COc1ccc(NC(=O)N2CCN(c3nc(C)nc(C)c3Cc3cccc(C(F)(F)F)c3)CC2)c(OC)c1 | 6 | 17
Cc1c(Br)cccc1NC(=O)C1(C)CCN1C(C)C (centres undefined) | 0 | -1
CC(=O)c1sc(NC(=O)C2CC2C)nc1-c1ccccc1 (centres undefined) | 3 | -2
C=CCCOC(=O)N1CCC2(CC1)[C@H](C(=O)Nc1ccccc1)[C@@H](OC)C(=O)N2C | 22 | 28
COc1ccc(C)cc1NCCC(=O)NC(C)c1ccccc1C (centres undefined) | 0 | -2
CCc1ccc(NC(=O)CSc2nc(=O)n(CCCN3CCOCC3)c3c2CCCC3)cc1 | -5 | -3
O=C(C=Cc1ccco1)Nc1ccc(Cl)cc1F | 9 | 4
CCC(CNC1CCN(c2ccccc2C)CC1)N1CCN(C)CC1 (centres undefined) | -3 | -9
CCc1nc2ccc(C(=O)NCCc3ccccn3)cn2c1N(CC)CC(=O)N(C)C | 14 | 15
COC(=O)COc1cccc(C2CC(=O)Nc3c2ccc2ccccc32)c1 (centres undefined) | 1 | -1
C=CCC1(CC=C)CCCN1Cc1nc(-c2ccccc2)no1 | 3 | 4
CCC(=O)NCCOc1ccc(-c2ccc(F)cc2)nn1 | -4 | -3
C=CCSc1nnc(NC(=O)C2CC2)s1 | 7 | 6
C=CCN1CC(c2nc3ccccc3n2Cc2ccc(C)cc2)CC1=O (centres undefined) | 0 | 16
O=C(CSc1nc(=O)n(CCCO)c2c1CCC2)Nc1ccc(F)cc1 | -1 | -7
O=C(Cc1nn2c(=O)[nH]c3ccccc3c2nc1=O)c1ccc[nH]1 | -3 | -3
CN(C)C(=O)N1CCC(C(=O)NC2CCCC[C@H]2NC(=O)c2ccc(F)cc2)CC1 (some centres undefined) | 2 | 16
Cc1nn(C)c(Cl)c1C1CCCN1Cc1cccc(C(N)=O)c1 (centres undefined) | 0 | -2
CCOC(=O)C(=O)N(C)c1c(CC)nc2c(OCCC3CCCCC3)cccn12 | 1 | 0
COc1ccccc1/C=C/C=C1N=C(/C=C/c2ccc(Cl)cc2Cl)OC\1=O | 0 | -12
O=C(Nc1nccs1)c1c(O)c2ccccc2[nH]c1=O | 3 | 5
Cc1cccc(C)c1OC1CN(C(=O)CN2CC(=O)NC2=O)C1 | 0 | -1
Cc1nnc2ccc(OCCNS(=O)(=O)c3cccs3)nn12 | 2 | 4

Some of these compounds in order of formula weight, smallest number first:
SMILES | NPYLR7 agonist | NPYLR7 agonist max-min
C=CCN1CC(c2nc3ccccc3n2Cc2ccc(C)cc2)CC1=O (centres undefined) | 0 | 16
COc1ccccc1/C=C/C=C1N=C(/C=C/c2ccc(Cl)cc2Cl)OC\1=O | 0 | -12
CCOC(=O)C(=O)N(C)c1c(CC)nc2c(OCCC3CCCCC3)cccn12 | 1 | 0
CN(C)C(=O)N1CCC(C(=O)NC2CCCC[C@H]2NC(=O)c2ccc(F)cc2)CC1 (some centres undefined) | 2 | 16

Continued:
SMILES | NPYLR7 agonist | NPYLR7 agonist max-min
O=S(=O)(NCCc1csc2nc(-c3ccc(Cl)cc3)nn12)c1cccs1 | 16 | 14
CCCCN(CC(=O)N1c2ccccc2-n2cccc2C1c1ccco1)C(=O)Nc1c(Cl)cccc1Cl (centres undefined) | 7 | 4
O=C(c1cc(COc2cccc3cccnc23)on1)N1CCSCC1 | 1&2 | -3&0
O=C(CC1CSc2nc3c(cnn3-c3cccc(Cl)c3)c(=O)n21)Nc1ccncc1 (centres undefined) | 0 | -1
COc1ccc(S(=O)(=O)N2CCC(NC(=O)COc3cc(Cl)ccc3Cl)CC2)cc1 | 8 | 11
CCOCCCN(CC(=O)N(CCc1ccccc1)Cc1ccc(C)o1)C(=O)Nc1ccc(OC)cc1 | 7 | 16
COCCN(CC(=O)Nc1cc(C(C)(C)C)nn1-c1ccc(C)cc1C)C(=O)Nc1ccc(OC)cc1OC | 12 | 15

Reformatted as labelled records: 4 of the compounds above
O=C(CC1CSc2nc3c(cnn3-c3cccc(Cl)c3)c(=O)n21)Nc1ccncc1 (centres undefined)
  NPYLR7 agonist: 0 | NPYLR7 agonist max-min: -1

COc1ccc(S(=O)(=O)N2CCC(NC(=O)COc3cc(Cl)ccc3Cl)CC2)cc1
  NPYLR7 agonist: 8 | NPYLR7 agonist max-min: 11

CCOCCCN(CC(=O)N(CCc1ccccc1)Cc1ccc(C)o1)C(=O)Nc1ccc(OC)cc1
  NPYLR7 agonist: 7 | NPYLR7 agonist max-min: 16

COCCN(CC(=O)Nc1cc(C(C)(C)C)nn1-c1ccc(C)cc1C)C(=O)Nc1ccc(OC)cc1OC
  NPYLR7 agonist: 12 | NPYLR7 agonist max-min: 15
